BJeLR viability – kills HRASV12-expressing BJeLR cells. BJeLR (HRASV12) viability, CellTiter-Glo ATP luminescence, 48 h; reference of the scale not given here. 300,000 compounds, 0.17% hits. inhibition, % (concentration not given with the values). AID 1554;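 active = replicate mean above 50%; inconclusive = above 50% but judged a plate artefact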;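 also: 50 nL library stock added to about 25 µL; numbers are from one replicate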
Sa ugtP lethal – kills S. aureus RN4220 lacking UgtP; 330,000 compounds, 0.54% hits; growth inhibition, % (concentration not given with the values); S. aureus RN4220 ugtP deletion, OD600 growth, 16 h; some inactives read as strong as hits;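 active = z-score under -3 and OD600 up to 0.15 on both plates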;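 also: plate controls were untreated wells for no effect and antibiotic for full effect; wells of about 80 µL received 100 nL stock; the first replicate is given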
Mtb hypoxia inh – reduces hypoxia-regulated biosensor signal in M. tuberculosis; M. tuberculosis hypoxia-regulated fluorescent reporter, fluorescence; fluorescence inhibition, % (test concentration not listed); 300,000 compounds, 0.1% hits; AID 1159583;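 active = 35 to 45% if threefold the growth effect, above 45% if 1.5-fold the growth effect; inactive = the rest, general growth blockers included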;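 also: wells of about 50 µL received 100 nL stock; 0% = vehicle wells and 100% = reference inhibitor wells; whole bacteria with a GFP reporter of the hypoxia response; strong numbers were not always called active; many hits fall short of the cut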
Bead autofluor – compound fluorescence in toxin protease inhibitor counterscreen; compound autofluorescence counterscreen, microsphere flow cytometry; active compounds read high; fluorescence intensity (concentration not given with the values); 360,000 compounds, 3.1% hits; AID 624483;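 active = at least 3 SD above the mean of all compounds, about 16000 in these data; inconclusive = too few beads counted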;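 also: 100 nL of 1 mM stock went into each well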
RN4220 kill – S. aureus RN4220 growth inhibition; inhibition, % (no concentration beside the values); 330,000 compounds, 0.33% hits; OD600, 16 h;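 active = z-score of -3 or lower and OD600 up to 0.18 on both plates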;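 also: plate controls were untreated cells for no effect and reference antibiotic for full effect; stock transfer was 100 nL into about 80 µL; one replicate is shown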
PrP UTR inh – inhibition of PrP 5' UTR reporter expression; AID 488862; inhibition, % (no concentration beside the values); cell-based PrP 5' UTR mRNA reporter, plate reader; 340,000 compounds, 0.35% hits;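 active = every replicate at 50% or more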;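 also: 0 = median of the neutral control wells; tested in H4 reporter cells; numbers are from one replicate; inactives centre near -14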
Mtb hypoxia inh growth – also measured in Mtb hypoxia inh; calls as there; growth inhibition, %; measured here: M. tuberculosis growth (absorbance);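 0% = vehicle and 100% = reference antibiotic; read after six days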
Starred values were filed as active, the others as inactive; u = inconclusive; x = not tested or not shown.

SMILES	BJeLR viability	Sa ugtP lethal	Mtb hypoxia inh	Mtb hypoxia inh growth	Bead autofluor	RN4220 kill	PrP UTR inh
COc1ccc(Cl)cc1NC(=O)c1ccc2c(SCC(=O)O)c3c(nc2c1)CCCC3	6.9	-3.2	-4.7	0.1	6089	14.8	11.0
N#Cc1ccccc1S(=O)(=O)c1ccccc1C(=O)Nc1ccccc1	-6.9	11.3	1.6	-0.5	1992	5.5	-19.8
CSCc1cc(N2CCOCC2)nc(SCc2ccc(Cl)c(Cl)c2)n1	16.3	73.6	-2.4	-4.9	10776	-14.9	-2.3
Cc1ccccc1Cc1ccc(Cl)nn1	2.4	0.3	1.8	-1.3	4288	1.1	-21.0
CC(=O)NCCNC(=O)c1ccc(CSc2nc3ccccc3s2)cc1	-8.1	x	x	x	5681	x	18.4
CCOC(=O)c1[nH]c2ccc(F)cc2c1NC(=O)C1=COCCO1	0.4	-12.1	x	x	4649	1.2	6.1
CC(C)c1nc2n[nH]c(N)c2c2c1CCC2	8.3	1.5	x	x	4626	1.8	3.0
COc1ccc(/C=N/OCC(=O)NCC(C)C)c(OC)c1	0.0	x	x	x	3331	x	-27.6
Cc1ccccc1N1CCN(c2ncnc3c2cnn3Cc2ccc(Cl)cc2)CC1	9.0	x	x	x	2920	x	-17.2
Cc1nn(Cc2ccc(Cl)cc2Cl)c(Cl)c1C(=O)NC1CCCc2ccccc21 (stereo not drawn)	-7.4	2.0	15.8	2.7	2148	11.6	-16.9
O=C1C(Cl)=C(N2CCOCC2)C(=O)N1CCc1ccccc1	-2.9	3.8	10.3	5.8	9741	9.1	-73.0
CCCCCCCNC(=O)C1(CC2CC(c3cccc(Br)c3)=NO2)CCN(C(=O)C2(C)CC2)CC1 (stereo not drawn)	x	-18.7	2.2	9.9	3398	1.5	-3.7
CC(C)C(=O)Nc1ccc(C(=O)NNC(=O)CCc2ccccc2)cc1	-3.5	11.7	11.4	7.0	7239	-5.2	-12.6
Cc1ccsc1/C=N/n1c(-c2ccco2)n[nH]c1=S	-1.9	x	x	x	6007	x	-20.9
CC(C)Cc1ccc(CN2CCCC(NC(=O)c3nn(C)c(=O)c4ccccc34)C2)cc1 (stereo not drawn)	-4.1	-2.0	-8.4	6.8	7070	-1.6	-11.1
Cc1cc(N2CCN(c3ccccc3)CC2)nc(N2CCOCC2)n1	0.9	12.4	15.4	7.8	3274	4.2	-20.9
CCOC(=O)C1(C)NC(c2ccc(OC)cc2OC)C2C(=O)N(CC)C(=O)C21 (stereo not drawn)	-1.8	1.3	11.9	3.7	4503	4.1	1.7
O=C(Cc1c(O)c2ccccc2[nH]c1=O)NCc1ccccc1	5.8	-4.9	-7.2	-4.8	4220	-1.1	-4.5
CC(=O)c1cccc(N(C(=O)Cn2nnc3ccccc32)C(C(=O)NCC2CCCO2)c2ccc(N3CCOCC3)cc2)c1 (stereo not drawn)	0.3	4.6	6.1	7.2	4387	4.5	-39.1
CC(C)C[C@H](NC(=O)C1CCN(C(=O)[C@H](Cc2ccccc2)NC(=O)OC(C)(C)C)CC1)C(=O)O	-2.0	-4.3	-5.8	2.7	3684	-1.2	-8.6
COc1ccc(Cl)cc1C(=O)NNC(=S)NC1CCCC1	1.1	-8.9	-0.3	6.3	4228	-2.0	-6.9
CCOc1ccc(CC(=O)NC2CC(C)(C)N(C)C(C)(C)C2)cc1OCC	x	-2.3	1.0	-2.1	u	3.8	-1.3
Cc1c(-c2ccco2)[n+](=O)c2c(n1[O-])CCC2	1.1	4.7	-3.6	2.1	4856	3.7	-4.2
COc1ccc(OC)c(NC(=O)NCc2cccnc2)c1	0.6	-5.5	3.4	1.4	x	-3.0	-29.2
CC(=O)Nc1ccc(NC(=O)CSc2nnc3c4ccccc4n(C)c3n2)cc1	-7.2	-1.9	1.4	-0.8	3386	2.3	-10.1
Cc1nc(C)c(-c2nnc(-c3ccccc3Cl)o2)cc1C(=O)NN	8.6	2.6	4.8	-6.3	4555	2.2	-8.3
C/C(=N\NC(=O)c1ccc(C)cc1)c1c(C)[nH]n(-c2ccccc2)c1=O	5.2	x	x	x	4696	x	-30.8
COC(=O)CC1COc2ccccc2N1C(=O)c1cc(OC)c(OC)c(OC)c1 (stereo not drawn)	-21.4	-3.9	3.8	-9.8	2893	0.0	-15.7
COc1ccc(/C=C(\C#N)C(=O)NC(C)c2ccccc2)cc1O (stereo not drawn)	-3.6	-4.1	21.7	6.6	5982	4.4	-6.8
Cc1cc(C(=O)C(C)Sc2cccc[n+]2[O-])c(C)n1-c1ccc(Cl)cc1 (stereo not drawn)	-6.6	0.6	-4.0	4.3	3904	5.1	-35.1
Cc1ccc(S(=O)(=O)N2CCCOC2CNC(=O)C(=O)NCc2cccnc2)cc1 (stereo not drawn)	7.9	3.8	9.5	4.9	2204	3.3	-36.8
O=C(NC1CC1)C1CCCN1C(=O)NC1CCCCC1 (stereo not drawn)	3.1	9.0	8.8	8.5	4312	5.0	-7.7
CCCCOc1ccc(C(=O)NCC(=O)NCc2ccncc2)cc1	6.6	x	x	x	u	x	-2.0
Cc1nc2ccccn2c1C(=O)NN=C1C2CC3CC(C2)CC1C3	2.7	-1.4	-7.5	-8.9	2331	2.6	-4.4
CCOC(=O)c1c[nH]c(=S)n(-c2ccccc2)c1=O	-4.3	3.4	6.0	9.0	3671	4.3	-26.1
CCOC(=O)C1C2COc3ccc(Br)cc3C2N2C(=O)c3ccc(Cl)cc3NC(=O)[C@@]12C (stereo partly drawn)	x	7.0	18.6	6.3	x	-4.9	x
COc1ccc(NC(=O)CSc2nccn2Cc2ccco2)cc1	2.6	-3.4	-4.4	0.5	4976	1.4	-53.0
O=C(CN1C(=O)NC2(CCOc3ccccc32)C1=O)N1CCCCC1 (stereo not drawn)	x	12.8	8.5	8.4	6313	4.6	-22.3
CCOc1ccc(S(=O)(=O)NCCC(=O)OC(C)C(=O)N2CCc3ccccc32)cc1 (stereo not drawn)	-1.0	1.7	12.6	3.6	8750	-2.5	-28.4
COc1cccc(NC(=O)C(=O)NN=Cc2cc(C)n(-c3ccc(Cl)c(Cl)c3)c2C)c1	x	4.4	-1.6	-7.2	x	0.5	x
O=C(Nc1ccccc1)N1CCCC1	3.3	4.0	0.9	5.4	23605*	3.0	-4.3
Cc1ccsc1/C=N/Nc1nc(=O)[nH]nc1C	29.2	x	x	x	4509	x	-43.5
CCCCn1c(=O)[nH]c(=O)c2c1nc(-c1ccncc1)n2CCOC	-0.9	3.0	x	x	4210	1.8	-10.3
Cc1ncc([N+](=O)[O-])n1Cc1cccc2ccccc12	5.1	0.9	1.6	3.8	2651	3.2	6.8
Cc1ccc(NC(=O)CN(C)C(=O)c2ccc(COc3ccccc3)cc2)cc1	-8.7	22.2	2.7	2.9	u	-1.0	-3.5
CCc1cccc(CC)c1N(COC)C(=O)Cn1nnc2ccccc21	-15.9	-1.7	15.2	11.8	2522	-3.4	-19.1
Cc1cnc(C(=O)OCC(=O)N2c3ccccc3CC2C)cn1 (stereo not drawn)	-2.3	4.1	4.9	-2.2	4517	1.1	-11.9
CCn1c(NC(=O)Nc2ccccc2OC)nc2ccccc21	-9.2	0.7	-1.2	1.9	u	-16.2	-15.3
O=C1NC2(CCCCC2)C(=O)N1Cc1ccc([N+](=O)[O-])cc1	0.4	2.6	1.7	9.2	3454	4.3	-26.1
Cc1ccc(N2CC(C(=O)OCC(=O)Nc3ccccc3C)CC2=O)cc1 (stereo not drawn)	x	3.1	3.1	4.2	7769	8.1	-10.5
CC(C)(C)OC(=O)C(Cl)(C(=O)OC(C)(C)C)c1ccc2nnnn2n1	3.2	23.8	10.3	20.8	3939	10.2	-9.8
COc1ccccc1C(=O)NC(=O)CSc1nnc2ccccn12	x	4.3	1.1	3.3	8430	3.8	-13.0
COc1ccc(OC)c(S(=O)(=O)NC(N)=NCCc2ccccc2)c1	-3.0	-0.9	-6.0	2.3	2029	6.2	8.5
O=C(c1ccc(Cl)c(S(=O)(=O)N2CCCC2)c1)N1CCN(c2ccccc2)CC1	5.7	8.0	13.4	5.1	2615	2.2	-24.0
COc1ccc(NC(=O)Cc2ccc(-c3ccccc3)cc2)cn1	6.2	19.3	4.7	-0.2	3093	1.8	5.1
O=[N+]([O-])c1ccc(N2CCOCC2)c2ccncc12	1.5	2.3	-3.8	12.9	4222	2.7	-2.0
O=C(NCc1cc(C(F)(F)F)cc(C(F)(F)F)c1)C1CC(c2ccccc2C(F)(F)F)=NO1 (stereo not drawn)	-17.6	7.6	10.9	4.9	x	1.4	x
COc1ccc(S(=O)(=O)N2CCOCC2)cc1NC(=O)c1ccc(S(=O)(=O)N2CCCCC2)cc1	x	2.9	11.3	8.6	3943	-1.3	-18.0
CC(C)(C)n1nnnc1C(c1ccccc1F)N1CCN(C(=O)c2ccco2)CC1 (stereo not drawn)	-7.2	14.4	-0.8	5.8	5372	4.8	-7.5
COc1cc(C=NNc2nncc3ccccc23)cc(OC)c1OC	x	7.4	-0.3	-2.8	x	4.9	x
(next part)
SMILES	BJeLR viability	Sa ugtP lethal	Mtb hypoxia inh	Mtb hypoxia inh growth	Bead autofluor	RN4220 kill	PrP UTR inh
O=C(CCCN1C(=O)/C(=C/c2cccs2)SC1=S)Nc1cccnc1	1.9	2.7	9.1	-1.0	3210	7.5	1.4
Cc1ccc(S(=O)(=O)N(C)CCCC(=O)NCc2ccc3c(c2)OCO3)cc1	-1.5	1.3	x	x	4693	-1.2	-31.6
Cc1nc2ccc(-n3ccc(=O)cc3)cc2s1	-3.7	6.1	3.9	8.4	10149	3.7	-23.4
CCOc1ccccc1N1CCN(S(=O)(=O)c2cccc3nsnc23)CC1	-4.0	4.6	4.1	2.7	11606	5.9	-23.8
CC(Oc1ccc2c(c1)oc(=O)c1ccccc12)C(=O)NCCCN1CCOCC1 (stereo not drawn)	-4.7	-6.9	-0.9	-4.6	5894	-0.2	-10.2
CS(=O)(=O)N(Cc1ccco1)CC(O)Cn1c2ccccc2c2ccccc21 (stereo not drawn)	-3.1	-16.2	10.9	4.8	9514	2.4	-21.8
Cc1cc(S(=O)(=O)N2CCCC2)ccc1OCC(=O)NC1CCCC1	5.2	5.0	-6.4	-28.2	3504	6.5	-4.1
NC(=O)C1CCN(C(=O)/C=C/c2cccc(Br)c2)CC1	3.5	-2.5	10.4	4.8	3477	5.5	-30.1

Single records, from the list above. Values in the order: BJeLR viability | Sa ugtP lethal | Mtb hypoxia inh | Mtb hypoxia inh growth | Bead autofluor | RN4220 kill | PrP UTR inh
Results for `Cc1nc2ccc(-n3ccc(=O)cc3)cc2s1` = -3.7 | 6.1 | 3.9 | 8.4 | 10149 | 3.7 | -23.4
Results for `NC(=O)C1CCN(C(=O)/C=C/c2cccc(Br)c2)CC1` = 3.5 | -2.5 | 10.4 | 4.8 | 3477 | 5.5 | -30.1
Results for `CCOc1ccccc1N1CCN(S(=O)(=O)c2cccc3nsnc23)CC1` = -4.0 | 4.6 | 4.1 | 2.7 | 11606 | 5.9 | -23.8
Results for `CC(Oc1ccc2c(c1)oc(=O)c1ccccc12)C(=O)NCCCN1CCOCC1` (stereo not drawn) = -4.7 | -6.9 | -0.9 | -4.6 | 5894 | -0.2 | -10.2
Results for `Cc1cc(S(=O)(=O)N2CCCC2)ccc1OCC(=O)NC1CCCC1` = 5.2 | 5.0 | -6.4 | -28.2 | 3504 | 6.5 | -4.1

In the list so far, 8 have an NH in an aromatic ring:
SMILES	BJeLR viability	Sa ugtP lethal	Mtb hypoxia inh	Mtb hypoxia inh growth	Bead autofluor	RN4220 kill	PrP UTR inh
CCOC(=O)c1[nH]c2ccc(F)cc2c1NC(=O)C1=COCCO1	0.4	-12.1	x	x	4649	1.2	6.1
CC(C)c1nc2n[nH]c(N)c2c2c1CCC2	8.3	1.5	x	x	4626	1.8	3.0
Cc1ccsc1/C=N/n1c(-c2ccco2)n[nH]c1=S	-1.9	x	x	x	6007	x	-20.9
O=C(Cc1c(O)c2ccccc2[nH]c1=O)NCc1ccccc1	5.8	-4.9	-7.2	-4.8	4220	-1.1	-4.5
C/C(=N\NC(=O)c1ccc(C)cc1)c1c(C)[nH]n(-c2ccccc2)c1=O	5.2	x	x	x	4696	x	-30.8
CCOC(=O)c1c[nH]c(=S)n(-c2ccccc2)c1=O	-4.3	3.4	6.0	9.0	3671	4.3	-26.1
Cc1ccsc1/C=N/Nc1nc(=O)[nH]nc1C	29.2	x	x	x	4509	x	-43.5
CCCCn1c(=O)[nH]c(=O)c2c1nc(-c1ccncc1)n2CCOC	-0.9	3.0	x	x	4210	1.8	-10.3
